T cruzi inh – blocks replication of Trypanosoma cruzi; T. cruzi beta-gal in NIH3T3, luminescence, 90 h; inhibition, % (no concentration beside the values); 300,000 compounds, 1.4% hits; AID 1885;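 active means mean inhibition across valid replicates above about 55%, limit read from the data; inconclusive means mean below that limit but half or more replicates reach it; inactive means mean below it, under half of replicates reach it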;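 further: signal also drops with host cell toxicity which is not excluded here; 0% = plate median of DMSO wells and 100% = zero luminescence signal; higher percent means less beta-gal luminescence so fewer parasites; stock transfer was 50 nL into about 50 µL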
Calb FLC – C. albicans growth modulation with fluconazole | growth inhibition, % (concentration not given with the values) | C. albicans CaCi-2 (fluconazole-resistant clinical isolate) + fluconazole, Alamar Blue growth, 48 h | 300,000 compounds, 0.57% hits | AID 1979;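 active means most replicates above 75%; inconclusive means exactly half above 75%; inactive means most below 75%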;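 further: all wells also contain fluconazole at 8 µg/ml as a sub-toxic cotreatment; 0% = median of DMSO wells and 100% = median of geldanamycin control wells; wells of about 8 µL received 7.5 nL stock; the first replicate is given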
Bfl-1 A1 inh – inhibitors of the anti-apoptotic protein A1, read as caspase activation; caspase activation, % (test concentration not listed); MEF A1-2A-BIM cells, Caspase-Glo 3/7 luminescence, 3 h; percent of clofoctol response, vehicle zero; 330,000 compounds, 0.066% hits;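 active means over half of replicate activation scores above 10%, or exactly half above 10 with the replicate mean above 10; inconclusive means replicate mean below 10 yet half the replicates above 10; inactive means over half of replicates below 10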;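 further: wells of about 30 µL received 50 nL stock; many hits fall short of the cut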
Beta apoptosis – blocks beta cell apoptosis | INS-1E cytokine-induced death, ATP luminescence, 48 h; percent of positive-control rescue, neutral wells zero | AID 435005 | 300,000 compounds, 0.8% hits | protection from apoptosis, % (concentration not given with the values);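 active means all replicates at 75% or more, or half of them and the mean; inconclusive means half reach 75% but not the mean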;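 further: 0% = cytokine-treated negative control wells and 100% = positive control rescue; higher means more ATP so stronger rescue from cytokine killing; wells of about 40 µL received 100 nL stock; the first replicate is given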
LANA-H2B inh – blocks KSHV LANA binding to histone H2A/H2B; AID 2629; Q9QR71; cell-free LANA-H2A/H2B peptide, fluorescence polarization; inhibition, % (test concentration not listed); 320,000 compounds, 0.6% hits; in the data active means inhibition mostly above about 10%, no sharp cut-off; inactive means mostly below about 6.7%;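 further: stock transfer was 7.5 nL into about 10 µL; 0% = median of vehicle wells and 100% = median of positive control wells; one replicate is shown; the record names a cut of 25% in any replicate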
Target sequence (Q9QR71 whole entry, looked up): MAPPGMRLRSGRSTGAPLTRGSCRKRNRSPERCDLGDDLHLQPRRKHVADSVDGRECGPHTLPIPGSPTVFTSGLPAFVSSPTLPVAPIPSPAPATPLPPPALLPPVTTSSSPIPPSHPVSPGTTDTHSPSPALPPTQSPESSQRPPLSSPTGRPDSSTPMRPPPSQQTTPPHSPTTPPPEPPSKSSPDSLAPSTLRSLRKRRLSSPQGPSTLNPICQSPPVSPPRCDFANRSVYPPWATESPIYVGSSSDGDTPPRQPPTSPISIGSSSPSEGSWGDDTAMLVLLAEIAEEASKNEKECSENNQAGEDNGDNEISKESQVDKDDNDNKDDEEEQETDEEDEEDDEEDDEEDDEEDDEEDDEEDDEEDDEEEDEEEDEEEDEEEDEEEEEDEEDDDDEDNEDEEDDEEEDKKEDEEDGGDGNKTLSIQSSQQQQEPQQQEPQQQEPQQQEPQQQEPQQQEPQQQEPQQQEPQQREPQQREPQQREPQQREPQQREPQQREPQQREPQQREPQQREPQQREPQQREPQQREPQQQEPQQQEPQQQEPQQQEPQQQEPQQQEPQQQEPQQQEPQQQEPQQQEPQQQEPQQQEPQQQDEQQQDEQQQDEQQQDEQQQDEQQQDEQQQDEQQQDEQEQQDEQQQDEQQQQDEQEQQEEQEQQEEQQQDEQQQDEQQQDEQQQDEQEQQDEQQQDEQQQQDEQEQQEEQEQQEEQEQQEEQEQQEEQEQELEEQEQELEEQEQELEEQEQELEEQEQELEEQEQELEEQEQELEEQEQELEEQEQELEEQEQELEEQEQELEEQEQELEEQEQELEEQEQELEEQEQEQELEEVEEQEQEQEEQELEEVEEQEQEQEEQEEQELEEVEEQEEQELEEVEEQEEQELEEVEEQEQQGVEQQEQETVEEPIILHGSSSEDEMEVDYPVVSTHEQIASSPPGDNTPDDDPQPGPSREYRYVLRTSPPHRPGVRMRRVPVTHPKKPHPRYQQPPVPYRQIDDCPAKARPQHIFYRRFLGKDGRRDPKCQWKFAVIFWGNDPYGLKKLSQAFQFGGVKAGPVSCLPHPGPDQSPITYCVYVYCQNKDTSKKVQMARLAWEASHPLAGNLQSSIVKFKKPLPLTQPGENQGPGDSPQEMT
Beta2AR agonist – agonists of human beta-2 adrenergic receptor inducing internalization; P07550; 340,000 compounds, 0.43% hits; response, % (test concentration not listed); Am2.2-beta2AR cells, FAP receptor internalization, flow cytometry; reference of the scale not given here;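 active means response above a set limit, near 3 SD of response in nonfluorescent compounds, cut at about 42% in these data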;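 further: stock transfer was 100 nL into about 11 µL; a reference agonist was the positive control; negative values mostly stem from fluorescent compounds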
Ecoli rRNA inh – selective bacterial rRNA inhibition in E. coli; E. coli WT GFP vs humanized-ribosome RFP mutants, fluorescence, 24 h; hits give low values; DMSO median 0, no signal -100; GFP signal change (wild-type ribosome), % (test concentration not listed); 350,000 compounds, 1.6% hits; AID 720706;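 active means significant combined selectivity score with lowered wild-type GFP, culture density cut under 30%, mutant RFP and density less affected; inactive means any of these conditions unmet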; further: one replicate is shown; some compounds called inactive have numbers as strong as hits
ALR H2O2 inh – blocks human ALR sulfhydryl oxidase activity. 290,000 compounds, 3.8% hits. inhibition, % (test concentration not listed). AID 485317. purified ALR, DTT oxidation, H2O2 HRP-luminol luminescence;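 active means mean and each replicate at 75% or more; inconclusive means only one of the two met; inactive means neither met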;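 further: stock transfer was 7.5 nL into about 7.5 µL; 0% = neutral wells and 100% = wells with inactivated enzyme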
Ecoli rRNA inh OD600 – further read-out of Ecoli rRNA inh, marked with its call; OD600 change, %; measured here: OD600 growth;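 optical density of the mix in the first replicate; 0 = DMSO median and -100 = no signal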
Ecoli rRNA inh RFP – recorded beside Ecoli rRNA inh, whose call it bears; RFP signal change, %; measured here: RFP humanized mutant strains;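 first replicate; 0 = DMSO median and -100 = no signal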
Numbers without * were called inactive; u = inconclusive; x = no result given. Some of the compounds tested (hit frequency here may not be typical).

# | SMILES | T cruzi inh | Calb FLC | Bfl-1 A1 inh | Beta apoptosis | LANA-H2B inh
1 | CC1(C)Cc2cccc(OCC(=O)N3CCN(S(=O)(=O)c4ccc(F)cc4)CC3)c2O1 | 4 | 15 | 0.2 | x | 2.0
2 | O=C(Cn1nnc2ccccc21)OCC(=O)c1ccc(Cl)c(Cl)c1 | 3 | 0 | -0.1 | 3 | 3.6
3 | c1ccc(-n2ncc3c(NCc4ccccn4)ncnc32)cc1 | 8 | -6 | 2.2 | -4 | 1.8
4 | Cc1cc(SCC(=O)N/N=C/c2ccc(O)cc2O)nc2ccccc12 | 69* | 8 | -0.6 | 37 | 2.4
5 | CC(OC(=O)c1ccccc1)C(=O)NCCC1=CCCCC1 (centres undefined) | 4 | 0 | 0.0 | 5 | 3.7
6 | CCOc1ccc(-c2nnc(-c3ccccc3)n2-c2ccccc2)cc1 | 24 | -6 | 0.1 | -3 | -2.8
7 | CCN(CC)c1ccc(-c2c(C#N)c(N)nc(OC)c2C#N)cc1 | 43 | -6 | 0.2 | x | -7.1
8 | COc1ccccc1NC(=O)N(Cc1ccco1)Cc1cc2cccc(C)c2[nH]c1=O | 16 | 2 | -0.3 | 1 | 3.6
9 | Cc1ccc(NC(=O)C2C(=O)N(CCO)C3(C)CC2c2ccccc2O3)cc1 (centres undefined) | 0 | -6 | 0.7 | 1 | -1.1
10 | CCCCC(CCC(=O)Nc1cc([N+](=O)[O-])ccc1O)C(=O)O (centres undefined) | -2 | 4 | 0.6 | -2 | 4.1

# | Beta2AR agonist | Ecoli rRNA inh | Ecoli rRNA inh OD600 | Ecoli rRNA inh RFP | ALR H2O2 inh
1 | 7 | x | x | x | -5
2 | -3 | x | x | x | -4
3 | -3 | -11 | -1 | -8.8 | 6
4 | -2 | -24 | -39 | -9.6 | x
5 | -4 | -5 | -4 | 0.5 | -18
6 | 16 | x | x | x | x
7 | -7 | 0 | 6 | 4.5 | 2
8 | -3 | x | x | x | x
9 | 18 | x | x | x | -1
10 | -7 | 7 | 6 | 0.7 | -21

The results go on:
# | SMILES | T cruzi inh | Calb FLC | Bfl-1 A1 inh | Beta apoptosis | LANA-H2B inh
11 | O=C(Nc1nc2cc3c(cc2s1)OCO3)c1ccco1 | -4 | -2 | x | x | x
12 | Cc1cccc(NC(=O)c2ccc(S(=O)(=O)NCc3cccnc3)cc2)c1C | -12 | 1 | 0.4 | 8 | 1.5
13 | Nc1nnc(SCCOc2ccc(Br)cc2)s1 | -4 | -7 | -2.2 | 5 | 3.2
14 | CSc1nc(Oc2ccc(F)cc2F)cc(C(F)(F)F)n1 | -16 | -3 | -0.7 | -3 | 2.1
15 | O=S1(=O)CCOCCCN1Cc1cccc(C(F)(F)F)c1 | -1 | -5 | 0.2 | -2 | 3.2
16 | O=C(Oc1ccccc1)N(c1ccccc1)c1ccccc1 | 7 | -1 | u | -3 | 0.2
17 | CCCN(CCC)C(=O)CSc1nc2c(sc(=S)n2-c2ccc(OCC)cc2)c(=O)[nH]1 | 17 | 45 | -0.3 | 8 | 11
18 | COc1cc(NC(=O)c2ccc([N+](=O)[O-])cc2)c(OC)cc1NC(=O)CC(C)C | 7 | 8 | -0.6 | -7 | -6.7
19 | COc1cc(S(=O)(=O)N(Cc2ccccc2)CC2CCCO2)ccc1-n1cnnn1 (centres undefined) | 12 | -11 | 1.0 | 2 | -0.3
20 | CC(=O)c1cccc(NC(=S)NC2CC2)c1 | -21 | -15 | 0.1 | -6 | -1.5

# | Beta2AR agonist | Ecoli rRNA inh | Ecoli rRNA inh OD600 | Ecoli rRNA inh RFP | ALR H2O2 inh
11 | -6 | 7 | -3 | 0.0 | x
12 | 4 | -3 | 3 | -1.7 | 1
13 | 6 | x | x | x | -4
14 | -10 | x | x | x | x
15 | -5 | 14 | 15 | 1.6 | x
16 | -3 | x | x | x | -2
17 | 8 | -24 | -23 | -5.7 | 23
18 | 0 | 6 | 13 | 1.7 | -31
19 | -3 | 7 | 2 | 1.5 | x
20 | -7 | x | x | x | 39

Taken from above.
Beta apoptosis, compound 20 : -6
Beta apoptosis, compound 12 : 8
LANA-H2B inh, compound 13 : 3.2

Compounds above that contain a CF3 group, in the order listed:
# | SMILES | T cruzi inh | Calb FLC | Bfl-1 A1 inh | Beta apoptosis | LANA-H2B inh
14 | CSc1nc(Oc2ccc(F)cc2F)cc(C(F)(F)F)n1 | -16 | -3 | -0.7 | -3 | 2.1
15 | O=S1(=O)CCOCCCN1Cc1cccc(C(F)(F)F)c1 | -1 | -5 | 0.2 | -2 | 3.2

# | Beta2AR agonist | Ecoli rRNA inh | Ecoli rRNA inh OD600 | Ecoli rRNA inh RFP | ALR H2O2 inh
14 | -10 | x | x | x | x
15 | -5 | 14 | 15 | 1.6 | x

By substructure, the entries above with an NH in an aromatic ring.
# | SMILES | T cruzi inh | Calb FLC | Bfl-1 A1 inh | Beta apoptosis | LANA-H2B inh
8 | COc1ccccc1NC(=O)N(Cc1ccco1)Cc1cc2cccc(C)c2[nH]c1=O | 16 | 2 | -0.3 | 1 | 3.6
17 | CCCN(CCC)C(=O)CSc1nc2c(sc(=S)n2-c2ccc(OCC)cc2)c(=O)[nH]1 | 17 | 45 | -0.3 | 8 | 11

# | Beta2AR agonist | Ecoli rRNA inh | Ecoli rRNA inh OD600 | Ecoli rRNA inh RFP | ALR H2O2 inh
8 | -3 | x | x | x | x
17 | 8 | -24 | -23 | -5.7 | 23

The list goes on.
# | SMILES | T cruzi inh | Calb FLC | Bfl-1 A1 inh | Beta apoptosis | LANA-H2B inh
21 | CCCOc1ccc(C(=O)c2nc3c(n2O)CCCC3)cc1 | 4 | -20 | 0.9 | -3 | 3.5
22 | N=c1c2c(ncn1Cc1ccco1)Oc1ccc3ccccc3c1C2c1ccccc1 (centres undefined) | 45 | -5 | -0.5 | x | -9.8
23 | Cc1ccccc1-n1nnnc1SCC(=O)c1c(N)n(C)c(=O)n(C)c1=O | -6 | -7 | x | x | x
24 | CC(NC(=O)CSc1ncccn1)c1ccc2c(c1)OCO2 (centres undefined) | x | x | 0.2 | -4 | 7.1
25 | Cc1ccc(C(=O)C(C)OC(=O)C2CC(=O)N(C3CCCCC3)C2)cc1 (centres undefined) | -12 | -5 | -0.3 | -4 | -4.4
26 | COc1ccccc1NC(=O)c1ccc(NC(=O)CSc2ncn[nH]2)cc1 | -11 | -3 | -0.5 | -4 | 4.7
27 | O=C(NCc1ccccn1)c1cccc(S(=O)(=O)Nc2ccc(SC(F)F)cc2)c1 | 1 | -4 | 0.2 | x | -5.5
28 | Clc1ccc(CSc2snnc2-c2ccccc2)c(Cl)c1 | 11 | -4 | -0.8 | -5 | -2.5
29 | NS(=O)(=O)c1ccc(NNC(=O)c2sccc2Cl)cc1 | 4 | -10 | -0.8 | 2 | 1.2
30 | O=c1c2cc(N3CCOCC3)ccc2[nH]c(=S)n1Cc1ccc(Cl)cc1 | -2 | -3 | 0.3 | 5 | 2.6
31 | O=C(Cc1ccccc1)N1CCC(O)(c2cccnc2)CC1 | -14 | 0 | 1.2 | x | 3.2

# | Beta2AR agonist | Ecoli rRNA inh | Ecoli rRNA inh OD600 | Ecoli rRNA inh RFP | ALR H2O2 inh
21 | -11 | x | x | x | -1
22 | 24 | x | x | x | -3
23 | -5 | 8 | 5 | -7.4 | x
24 | 2 | 3 | 5 | 1.4 | 0
25 | -8 | x | x | x | -28
26 | -7 | x | x | x | -14
27 | 2 | -2 | -51 | -6.3 | 98*
28 | 4 | x | x | x | 5
29 | -5 | 1 | 9 | -2.2 | 15
30 | 4 | x | x | x | -5
31 | -6 | x | x | x | -6

Another view of part of the listing above.
#23 Cc1ccccc1-n1nnnc1SCC(=O)c1c(N)n(C)c(=O)n(C)c1=O
#24 CC(NC(=O)CSc1ncccn1)c1ccc2c(c1)OCO2 (centres undefined)
#25 Cc1ccc(C(=O)C(C)OC(=O)C2CC(=O)N(C3CCCCC3)C2)cc1 (centres undefined)
#26 COc1ccccc1NC(=O)c1ccc(NC(=O)CSc2ncn[nH]2)cc1
#27 O=C(NCc1ccccn1)c1cccc(S(=O)(=O)Nc2ccc(SC(F)F)cc2)c1

assay / entry,23,24,25,26,27
T cruzi inh,-6,x,-12,-11,1
Calb FLC,-7,x,-5,-3,-4
Bfl-1 A1 inh,x,0.2,-0.3,-0.5,0.2
Beta apoptosis,x,-4,-4,-4,x
LANA-H2B inh,x,7.1,-4.4,4.7,-5.5
Beta2AR agonist,-5,2,-8,-7,2
Ecoli rRNA inh,8,3,x,x,-2
Ecoli rRNA inh OD600,5,5,x,x,-51
Ecoli rRNA inh RFP,-7.4,1.4,x,x,-6.3
ALR H2O2 inh,x,0,-28,-14,98*
